GLA inh pH 4.5: qHTS Assay for Inhibitors of Human alpha-Galactosidase at pH 4.5 | purified enzyme, 4-MU-alpha-Gal fluorescence, pH 4.5 | activity change, negative = inhibition, % at 105 µM | 230,000 tested, under 10 active; inconclusive = small, poorly fitted or top-dose-only inhibition, or a rising curve; inactive = flat fitted curve, though single readings scatter; no compound was filed as active;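 note: 0% = full activity with enzyme and -100% = basal without enzyme; dose as in the result columns while the protocol names 77 µM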
Target sequence (P06280 whole entry, looked up): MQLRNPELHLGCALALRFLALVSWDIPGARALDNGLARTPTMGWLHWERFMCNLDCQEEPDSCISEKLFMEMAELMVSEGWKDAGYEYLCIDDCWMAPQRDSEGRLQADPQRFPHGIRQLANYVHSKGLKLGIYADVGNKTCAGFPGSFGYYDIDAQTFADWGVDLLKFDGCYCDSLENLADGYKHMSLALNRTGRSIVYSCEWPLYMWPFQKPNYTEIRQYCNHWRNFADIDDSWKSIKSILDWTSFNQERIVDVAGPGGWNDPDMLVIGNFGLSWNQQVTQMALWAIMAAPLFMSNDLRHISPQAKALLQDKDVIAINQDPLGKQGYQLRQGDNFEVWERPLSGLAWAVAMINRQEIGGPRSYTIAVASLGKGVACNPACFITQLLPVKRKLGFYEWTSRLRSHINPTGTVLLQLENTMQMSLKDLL
miR-21 FLuc: qHTS Assay for Modulators of miRNAs and/orActivators of miR-21 | HeLa miR-21 FLuc reporter, luciferase, 48 h | Potency, µM (doses to about 38.3 µM), for the others: at the top dose reporter change, positive = more light | 340,000 tested, under 10 active; active = well fitted rising curve with a large enough effect; inconclusive = small, poorly fitted or top-dose-only effect; inactive = no such curve, though single readings can be large or run the other way;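 note: % of control where 0% means no effect; miR-21 action dims this reporter so a rising signal means less miR-21 action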
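HeLa cells endogenously expressing miR-21, stably carrying CMV-driven firefly luciferase with a downstream miR-21 binding site, 2000 cells/well. Titrations up to approximately 40 uM, 48 hours; luciferase luminescence read.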
Rango dissoc inh: qHTS Assay for Inhibitors of RanGTP induced Rango (Ran-regulated importin-beta cargo) - Importin beta complex dissociation | Potency, µM (titrated, usually from 46.1 µM), for inactives: at the top dose activity change, negative = inhibition | 0.071% of 340,000 active | Biochemical FRET Rango-importin beta, RanGTP-induced dissociation | AID 540253, 2011 | Snurportin-1 (Homo sapiens) + GTP-binding nuclear protein Ran (Homo sapiens) + Importin …; active means falling FRET ratio curve, often poorly fitted, with flat reads before Ran was added; inconclusive means other falling curves, or compound fluorescence or quenching; inactive means flat or rising ratio curve;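 note: potency is the fitted concentration of half-maximal effect; % of control where 0% means no effect; nearly all actives have a fitted effect of over 45% in size; -100% = wells without RanGTP and RCC1; the record marks most hits as doubtful in a second field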
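Quantitative HTS using a FRET biosensor: 0.1 uM Rango, 0.25 uM importin beta, 0.6 uM Ran, 2 mM GTP, 0.2 uM RCC1 final, PBS with DTT, Tween-20 and BSA. Post-read taken 45 min after Ran addition.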
Rango-impB inh: qHTS Assay for Inhibitors of Rango (Ran-regulated importin-beta cargo) - Importin beta complex formation | Rango CFP/YFP FRET sensor + importin beta, 45 min | Potency, µM (series often up to 92.2 µM), for inactives: at the highest dose inhibition of complex formation | 0.031% of 340,000 active | AID 540263, 2011; active = rising FRET ratio curve, often small or poorly fitted; inconclusive = mostly compound fluorescence or quenching in the first reads; inactive = flat curves in all reads;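 note: potency is the fitted concentration of half-maximal effect; 0% = DMSO wells and 100% = buffer wells lacking importin beta; nearly all actives have a fitted effect of over 15% in size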
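FRET biosensor (snurportin 1 IBB flanked by EYFP and cerulean), 50 nM, with compound 5 min, then 0.125 microM importin beta in PBS, 1 mM DTT, 0.02% Tween-20, 0.1% BSA. CFP/YFP ratio read after 45 min at room temperature; pre-read flags interference.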
The depositor's hits bear a star; u = inconclusive; x = no result given. This is a subset (hit frequency here may not be typical).

Sample of the layout (7 entries):
Rango dissoc inh	SMILES	miR-21 FLuc	GLA inh pH 4.5	Rango-impB inh
-7%	Nc1nncn1C(=O)c1c(Cl)cccc1Cl	2%	1	1.6%
-4%	COC(=O)c1cnn2c1C(=O)N(Cc1cccs1)CC2	3%	0	0.3%
0%	Cc1ccc(CSc2nnc([C@@H]3CCCN3)o2)cc1	-13%	3	-0.7%
-13%	NS(=O)(=O)c1ccc(NC(=O)Cc2cccs2)cc1	-18%	x	-0.6%
0%	COCCNC(=O)CNC(=S)N(CCCN1CCOCC1)Cc1cccs1	-3%	-2	1.5%
-16%	CCn1c(CCCOc2ccc(Cl)cc2Cl)n[nH]c1=S	-48%	3	0.7%
-3%	COC(=O)c1ccc(COC(=O)Cc2n[nH]c(=O)c3ccccc23)cc1	-20%	-2	1.4%

The list itself, previewed entries included:
Rango dissoc inh	SMILES	miR-21 FLuc	GLA inh pH 4.5	Rango-impB inh
-7%	Nc1nncn1C(=O)c1c(Cl)cccc1Cl	2%	1	1.6%
-4%	COC(=O)c1cnn2c1C(=O)N(Cc1cccs1)CC2	3%	0	0.3%
0%	Cc1ccc(CSc2nnc([C@@H]3CCCN3)o2)cc1	-13%	3	-0.7%
-13%	NS(=O)(=O)c1ccc(NC(=O)Cc2cccs2)cc1	-18%	x	-0.6%
0%	COCCNC(=O)CNC(=S)N(CCCN1CCOCC1)Cc1cccs1	-3%	-2	1.5%
-16%	CCn1c(CCCOc2ccc(Cl)cc2Cl)n[nH]c1=S	-48%	3	0.7%
-3%	COC(=O)c1ccc(COC(=O)Cc2n[nH]c(=O)c3ccccc23)cc1	-20%	-2	1.4%
-1%	CCCCN(C(=O)CCC(=O)Nc1cc(C)on1)C(C(=O)NC1CCCC1)c1ccc(OC)cc1 (centres undefined)	1%	x	0.0%
-10%	COC(=O)COc1ccc(S(=O)(=O)NCc2ccccn2)cc1	1%	x	0.4%
1%	COc1ccc(Nc2nc(C)cc(C)c2C(N)=O)cc1	2%	2	u
-16%	CC1CCc2c(sc(NC(=O)COC(=O)c3ccc(O)cc3)c2C#N)C1 (centres undefined)	3%	-2	u
-18%	O=C(NC1CC1)c1cc(-c2ccco2)nc2ccccc12	1%	-5	-1.6%
29%	CS(=O)(=O)Nc1ccc(C(=O)NCc2ccc3c(c2)OCO3)cc1	-4%	4	6.5%
5%	Cc1ccc(-c2csc3nc(-c4ccncc4)[nH]c(=O)c23)cc1	-6%	5	-5.4%
8%	COc1cc(OC)cc(C(=O)NC(=S)N2CCN(c3ccc(C(F)(F)F)cc3[N+](=O)[O-])CC2)c1	-1%	0	0.8%
0%	CN(CCOc1ccc(Cl)cc1)C(=O)c1cc(-c2ccco2)nc2ccccc12	x	x	-1.1%
0%	O=C(NCCc1ccccc1)c1cccc(N2CCCC2=O)c1	19%	x	0.4%
0%	CCN(c1ccccc1)S(=O)(=O)c1ccc(C(=O)Nc2c(C)n(C)n(-c3ccccc3)c2=O)cc1	x	x	u
15%	CSc1nc(-c2ccccc2)nc(SC)c1C(C)=O	-1%	-3	-2.7%
8%	Cc1noc(C)c1C(c1ccccc1)c1ccccc1	-1%	10	-0.3%
1%	COc1ccc(N(C(=O)c2ccc(S(=O)(=O)N3CCOCC3)cc2)C2C=CS(=O)(=O)C2)cc1 (centres undefined)	-1%	5	7.8%
-28%	Cc1nc2ncnn2c(N2CCN(C(=O)c3cccc(F)c3)CC2)c1C	-1%	-24	1.0%
-1%	CCC(=O)c1ccc2c(c1)OCCO2	-10%	-3	0.2%
-13%	CCOC(=O)c1c(NC(=O)Cn2cnc3scc(-c4ccc(C)cc4)c3c2=O)sc(C)c1C	0%	5	-0.9%
-12%	Cn1c(=O)c2c(nc(NCCO)n2CCc2ccccc2)n(C)c1=O	15%	9	-2.0%
u	COC(=O)C1=C(C(=O)OC)[C@@H]2N(C)c3ccc(OC)cc3[C@@]23C[C@@H](C(=O)OC)N(C(=O)NC2CCCCC2)C3=N1	x	x	-2.8%
1%	CCCN1CCN(CCCNC(=O)Cn2nc(-c3ccc(C)cc3)ccc2=O)CC1	-2%	1	0.1%
10%	Cc1cccc(C(=O)NNS(=O)(=O)c2ccccc2)c1O	2%	4	-7.0%
0%	CCCN1CCN(C(=S)Nc2ccc(SC(F)F)cc2)CC1	-4%	9	-0.9%
0%	COc1cccc2c1OCC(C(=O)NCc1ccc(Cl)cc1Cl)=C2	-15%	-5	5.1%

(more compounds)
Rango dissoc inh	SMILES	miR-21 FLuc	GLA inh pH 4.5	Rango-impB inh
-6%	COc1ccc(/C=N/Nc2cc(N3CCCC3)nc(N3CCCC3)n2)cc1	1%	u	-0.7%
8%	Cc1ccc(C)c(NC(=O)Cn2nc(-c3ccccc3)nc2-c2ccccc2)c1	1%	-5	-4.3%
-15%	Cc1oc(-c2ccccc2F)nc1CN1CCC(C(=O)NCc2cccnc2)CC1	-1%	-4	u
4%	Cc1cc(NS(=O)(=O)c2ccccc2)cc(Cl)c1O	7%	0	0.1%
2%	CCOc1ccc(-c2nn(-c3ccccc3)cc2/C=C2\SC(=S)N(C3CCS(=O)(=O)C3)C2=O)cc1 (centres undefined)	-3%	1	11%
15%	Cc1ccccc1CN1CCN(C(=O)c2cc(-c3ccncc3)nc3ccccc23)CC1	-11%	x	-3.7%
12%	Fc1ccc(-n2cc(CNCCc3ccccn3)c(-c3ccccc3Cl)n2)cc1	20%	x	-1.8%
7%	CN1C(=O)/C(=N\OC(=O)c2cccc3ccccc23)c2ccccc21	-2%	-27	4.9%
9%	CCc1nnc(NC(=O)COc2ccc([N+](=O)[O-])cc2)s1	-4%	u	2.0%
-10%	O=C(COc1ncnc2ccc(Br)cc12)NCc1ccc2c(c1)OCO2	-1%	0	0.6%
25%	O=C(Cn1cnc2c(OCc3ccccc3)ncnc21)NCCCc1ccccc1	x	x	-1.5%
5%	NN=C(c1cccc([N+](=O)[O-])c1)c1cccc([N+](=O)[O-])c1	x	x	2.0%
14%	COc1ccc(CCNC(=O)COC(=O)c2cc(S(=O)(=O)N3CCCC3)ccc2O)cc1	x	x	2.0%
-8%	O=C(O)/C=C/c1cnc2ccccc2c1	-11%	-6	-2.5%
8%	COc1ccc(-n2c(Cc3cccn3C)nnc2SCC(=O)Nc2ccc3c(c2)OCCO3)cc1	9%	-15	-0.2%
x	Cc1nc(N)sc1C(=O)N/N=C/c1ccccc1[N+](=O)[O-]	-44%	-21	x
5%	CCOc1ccc(NC(=O)C2CCCN2S(=O)(=O)c2ccc3c(c2)C(C)(C)C(=O)N3C)cc1 (centres undefined)	13%	x	1.0%
x	OCCCc1nc2n(n1)C(c1cccs1)C=C(c1ccc(Br)cc1)N2 (centres undefined)	-14%	5	x
50%	Cc1nn(CCCC(=O)Nc2cnn(Cc3ccc(F)cc3)c2)c(C)c1[N+](=O)[O-]	-5%	-8	-4.3%
0%	O=C1N(c2ccccc2)C[C@@H]2C[C@@H](c3cccc4c3OCO4)N3CCC[C@@]123	-6%	4	0.4%
17%	CN(CC(=O)Nc1ccc(F)cc1)C(=O)C1CC(=O)N(Cc2ccccc2)C1 (centres undefined)	1%	x	3.0%
5%	COc1ccc(S(=O)(=O)NNC(=O)C23CC4CC(CC(C4)C2)C3)cc1[N+](=O)[O-]	x	x	-1.0%
10%	Cc1nc(N2CCN(Cc3ccc4c(c3)OCO4)CC2)c2cc(-c3ccccc3)sc2n1	-5%	-2	5.4%
13%	Cc1ccc(S(=O)(=O)/N=C(/Nc2c(C)cccc2C)c2ccccc2)cc1	x	x	-2.3%
7%	C[C@H](CO)N1C[C@H](C)[C@@H](CN(C)C(=O)Nc2ccc3c(c2)OCO3)Oc2ccc(NC(=O)Nc3ccc4c(c3)OCO4)cc2C1=O	x	x	1.5%
-23%	O=c1oc(CCCO)cc2ccc(C#Cc3ccsc3)cc12	x	x	-3.1%
7%	CCOC(=O)N1CCC(NC(=O)C2CCCN(Cc3nc(-c4ccc(CC)cc4)oc3C)C2)CC1 (centres undefined)	15%	x	0.0%
-8%	O=S(Cc1ccc(Cl)cc1)CC(O)COCc1ccc(Cl)cc1 (centres undefined)	0%	2	-1.3%
-14%	COc1ccc(Cc2noc(-c3ccc([N+](=O)[O-])cc3)n2)cc1OC	3%	-2	-0.3%
-18%	O=C1CC(N2CCN(c3ccc(F)cc3)CC2)C(=O)N1c1ccc(F)cc1 (centres undefined)	-1%	x	3.8%

Later entries
Rango dissoc inh	SMILES	miR-21 FLuc	GLA inh pH 4.5	Rango-impB inh
x	CCN1CCN(CCOCCOc2ccccc2-c2ccccc2)CC1	-1%	15	x
8%	C#CCOCCOCCOCCNc1nc(N2CCN(C(=O)C([C@@H](C)CC)n3cc(C(N)Cc4ccc(O)cc4)nn3)CC2)nc(N2CCN(C(=O)[C@H](CCC(=O)O)n3cc(C(N)CO)nn3)CC2)n1 (some centres undefined)	-1%	7	1.9%
u	COc1ccc(C(C)=O)c(Oc2cc(NN3CCCCC3)c([N+](=O)[O-])cc2[N+](=O)[O-])c1	1%	x	u
-10%	CCCCOC(=O)C(C)Sc1n[nH]c(=O)[nH]c1=O (centres undefined)	-12%	-8	-1.1%
5%	COc1cccc(C2N(c3ccccc3)CCN2c2ccccc2)c1OC	-12%	1	2.6%
4%	CC(NC(=O)COC(=O)c1ccc([N+](=O)[O-])s1)c1ccccc1 (centres undefined)	1%	2	3.6%
-5%	CCC(OC(=O)c1cccs1)C(=O)NCc1ccc2c(c1)OCO2 (centres undefined)	-5%	-8	5.0%
-21%	Cc1ccc(CN=Cc2[nH]c3ccc(Br)c(Cl)c3c2O)cc1	-1%	2	u
-21%	CCN1C(=O)C(CC(=O)Nc2ccc(C)cc2C)Nc2cc(S(=O)(=O)N(C)C)ccc21 (centres undefined)	1%	-19	u
1%	Cc1cccn2c(=O)c(C=O)c(N3CCCCC3)nc12	-15%	2	0.4%
-6%	O=S(=O)(NCCc1ccccn1)c1cccs1	-2%	0	-0.6%
8%	O=C(CSC1=Nc2ccccc2C2=NC(c3ccccc3)C(=O)N12)NC1CCCCC1 (centres undefined)	-10%	5	4.0%
-4%	CC(C)CNS(=O)(=O)c1cc(C(=O)OCC(=O)N2CCOCC2)c(Cl)cc1Cl	2%	x	-0.3%
-19%	CCc1noc(C)c1C(=O)N1CCCSC1=Nc1ccccc1OC	x	x	0.0%
-3%	O=C(NC1CCCCC1)c1ccc2c(c1)OCCO2	-60%	x	4.6%
0%	CSCCC(NC(=O)c1ccccc1)C(=O)NCCc1ccccc1 (centres undefined)	-3%	x	0.6%
1%	COc1ccc(Cl)cc1NC(=O)CCCNC(=O)c1ccc(Cl)cc1	-5%	x	-2.3%
10%	Cc1ncc(CO)c(CO)c1O	x	-9	-0.7%
11%	CC(C)(C)C(=O)Nc1ccc(C(=O)Nc2cccnc2)cc1	-45%	6	0.3%
-9%	Cc1ccc(S(=O)(=O)N2CCC(C)CC2)cc1[N+](=O)[O-]	-8%	10	-1.7%
12%	CC(=O)OCC=C1CCC2C3CC(C)C4=CC(=O)CCC4(C)C3C(O)CC12C (centres undefined)	x	x	-2.2%
-2%	CC(=O)c1sc(NC(=O)c2ccco2)nc1-c1ccccc1	-33%	-7	u
-17%	COc1ccc(C)cc1NC(=O)CN1CCN(C/C=C/c2ccccc2)CC1	11%	-18	0.6%

Sorted by count of non-hydrogen atoms (ascending): some entries from above.
Rango dissoc inh	SMILES	miR-21 FLuc	GLA inh pH 4.5	Rango-impB inh
-8%	O=S(Cc1ccc(Cl)cc1)CC(O)COCc1ccc(Cl)cc1 (centres undefined)	0%	2	-1.3%
13%	Cc1ccc(S(=O)(=O)/N=C(/Nc2c(C)cccc2C)c2ccccc2)cc1	x	x	-2.3%
10%	Cc1nc(N2CCN(Cc3ccc4c(c3)OCO4)CC2)c2cc(-c3ccccc3)sc2n1	-5%	-2	5.4%
